Mtb betalactam: beta-lactam sensitization of Mtb H37Rv; M. tuberculosis H37Rv growth with meropenem, percent inhibition; hits of this screen are not shown here; 330,000 tested, 0.27% active; inhibition, % at 25 µM;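 active = about 74% or more and at least 40 points above the plate without the antibiotic, then above 30% in a dose series; inconclusive = first-round hits that could not be retested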;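 note: growth measured after seven days incubation then overnight dye step; 0% = bacteria only wells and 100% = bacteria with antibiotic; twin plates without the antibiotic show which effects depend on it; some results filed as inactive read as strong as hits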
YopH PTP inh: blocks Yersinia enterocolitica YopH tyrosine phosphatase; 140,000 tested, 0.16% active; fluorescence Ex485/Em525; AID 898; inhibition, %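 (about 10 µM by stock and volumes)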;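 active = inhibition of 50% or more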;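 note: controls were vehicle for no effect and minimum signal wells for full effect; inactives centre near -20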
Arbovirus inh: antivirals against arbovirus infection; arbovirus infection cell-based antiviral screen; inhibition, % at 10 µM; 200,000 tested, 0.37% active; AID 1251;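 active = inhibition from about 30%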;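 note: bluetongue infection of BSR cells; cell survival read as ATP light after 72 h; 0% = infected wells without compound and 100% = uninfected wells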
Mtb H37Rv: M. tuberculosis H37Rv growth inhibitors, H37Rv strain (AID 1626); M. tuberculosis H37Rv growth inhibition; higher % means a stronger effect; one-dose inhibition, % at 10 µM; IC50 in µM for titrated hits; 220,000 tested, 0.95% active;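 active = confirmed in a dose series; inconclusive = inhibition above 80% but not taken into the dose series; inactive = below 80% or under 30% at every dose of the series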;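 note: bacteria incubated seven days before Alamar blue readout; 0% = bacteria only wells and 100% = bacteria with antibiotic wells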
RecA splice inh: Mtb RecA intein splicing inhibition. P9WHJ3. cell-free RecA intein splicing, fluorescence. inhibition, %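 (about 9 µM by stock and volumes)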. 290,000 tested, 0.75% active. AID 2221; in the data active = inhibition above about 30%; inconclusive = no clear call, values can overlap the other calls;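 note: 0% = vehicle wells and 100% = reference inhibitor control wells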
Target sequence (P9WHJ3 whole entry, looked up, canonical isoform): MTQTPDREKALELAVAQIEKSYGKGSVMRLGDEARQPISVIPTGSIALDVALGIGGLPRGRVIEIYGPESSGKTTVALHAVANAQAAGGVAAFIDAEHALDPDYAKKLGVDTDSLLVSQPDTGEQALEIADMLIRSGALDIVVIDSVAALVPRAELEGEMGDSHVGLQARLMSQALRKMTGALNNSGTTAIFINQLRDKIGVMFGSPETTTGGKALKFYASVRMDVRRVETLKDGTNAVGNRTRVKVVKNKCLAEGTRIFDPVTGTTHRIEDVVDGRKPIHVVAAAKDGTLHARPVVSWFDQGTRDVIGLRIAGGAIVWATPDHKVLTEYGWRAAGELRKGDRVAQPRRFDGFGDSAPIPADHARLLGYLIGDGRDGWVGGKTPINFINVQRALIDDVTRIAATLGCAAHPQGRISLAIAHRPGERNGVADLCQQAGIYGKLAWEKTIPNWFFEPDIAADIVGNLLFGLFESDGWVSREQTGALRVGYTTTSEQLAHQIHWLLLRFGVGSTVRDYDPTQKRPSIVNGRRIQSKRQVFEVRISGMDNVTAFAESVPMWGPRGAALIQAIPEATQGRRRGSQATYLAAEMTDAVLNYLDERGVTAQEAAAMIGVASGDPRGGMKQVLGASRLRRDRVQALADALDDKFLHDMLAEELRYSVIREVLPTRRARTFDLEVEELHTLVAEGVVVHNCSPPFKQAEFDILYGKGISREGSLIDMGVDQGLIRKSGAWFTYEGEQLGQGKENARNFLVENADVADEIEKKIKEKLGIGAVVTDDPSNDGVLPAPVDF
Arbovirus inh repeat: further read-out of Arbovirus inh, marked with its call; inhibition, %; measured here: 10K subset replicate screen; many hits read low in the repeat;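 first of two repeat runs on a subset; 0% = infected and 100% = uninfected wells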
Active calls of the source: *; ? = inconclusive; / = no result given. Some of the compounds tested; rates above refer to the full screens.

SMILES	Mtb betalactam	YopH PTP inh	Arbovirus inh	Mtb H37Rv	RecA splice inh	others
CCCCOc1ccc(C(=O)NCC(=O)NC2CCC(C)CC2)cc1 (configuration not stated)	-2.6	/	/	/	0.5
CCOC(=O)c1c(-n2c(C)cc(C=O)c2C)sc2c1CCCC2	33.1	-39.9	-5.3	3.4%	2.7
O=C(O)c1ccccc1C(=O)OCCCc1ccncc1	-6.5	/	/	/	-3.7
COc1ccc(OC)c(NC(=O)COc2coc(CN3CCCc4ccccc43)cc2=O)c1	54.6	/	/	/	2.1
CCCCCCC(=O)Nc1nc(C)c(-c2csc(Nc3cc(Cl)ccc3C)n2)s1	-4.3	2.8	8.6	-11.8%	2.1
COC(=O)C1N[C@@H]([C@@H](NC(=O)COc2ccccc2)C(=O)NCc2ccccc2)SC1(C)C (some centres not stated)	-8.3	/	/	8.3%	-0.1
Cc1ccc(/C=N\Nc2cn[nH]c(=O)c2Cl)cc1	17.7	-0.7	-6.0	6.3%	-1.1
CC(=O)NNC(=S)NCCc1ccccc1	24.7	/	7.9	-0.5%	0.2
O=C1CSc2ccc(C(=O)N3CCN(c4ccccn4)CC3)cc2N1	39.1	-16.7	-1.5	-3.7%	/
CCOC(=O)Nc1ccc(Cc2ccncc2)cc1	11.4	/	-6.5	8.8%	0.0
CCN1CCN(c2ccc([N+](=O)[O-])cc2S(=O)(=O)N2CCOCC2)CC1	-4.6	/	6.3	2.0%	-1.6
CC(/C=C/c1ccco1)=N/NC(=O)C1COc2ccccc2O1 (configuration not stated)	4.3	/	/	-6.7%	0.9
CCOc1ccc(-c2c(C(=O)N/N=C/c3ccsc3)nnn2-c2nonc2N)cc1	-1.4	/	/	/	-1.8
COc1cc(NC(=O)CSc2cc(C)c3cc(C)cc(C)c3n2)c(C(=O)O)cc1OC	-1.9	/	/	-12.1%	2.8
CCc1ccccc1NC(=O)c1cc(-c2ccco2)on1	-1.1	/	/	/	0.6
c1ccc(-n2c(Sc3cnccn3)nnc2-c2cccs2)cc1	-6.2	-29.5	3.9	-8.4%	/
CCOC(=O)CSc1nnc(CSc2nc3ccccc3s2)n1C	4.0	-28.9	-2.0	-14.0%	0.7
CCOC(=O)c1c(N)n[nH]c1-c1ccc(OC)cc1	3.5	-21.3	-0.4	-1.8%	1.4
CCc1cc(CC)c(/C=N/NC(N)=O)c(CC)c1/C=N/NC(N)=O	-1.0	/	-4.8	-5.4%	0.3
CC1=C(C(=O)N(C)C)C(c2cccc(Cl)c2)NC(=O)N1 (configuration not stated)	-6.9	-30.8	11.2	-9.5%	1.3	Arbovirus inh repeat=8.1
COc1ccc(N2C(=NC(=O)c3ccccc3)SC3CS(=O)(=O)CC32)cc1 (configuration not stated)	0.3	/	/	/	-1.2
COc1ccc(C2C(C(=O)NCCN(C)C)c3cc(OC)c(OC)cc3C(=O)N2C)cc1OC (configuration not stated)	-4.0	-26.4	0.4	-1.7%	0.6	Arbovirus inh repeat=-0.5
COc1ccc(N2C(=O)CSC2c2cccc(OC)c2OC)cc1 (configuration not stated)	-2.8	-15.8	10.2	-1.4%	-0.4
Cc1ccc(CS(=O)(=O)CCC(=O)NCCc2ccccc2)cc1	-2.4	/	/	/	-0.7
Cn1c2c(c(O)c(-c3ccccc3)c1=O)C(=O)CC(C)(C)C2	-1.6	-29.0	2.1	-1.5%	0.1
SMILES	Mtb betalactam	YopH PTP inh	Arbovirus inh	Mtb H37Rv	RecA splice inh	others
CCCCN(Cc1ccco1)C(=O)c1cc2c(=O)[nH]c3ccc(C)cc3c2s1	-2.3	-52.5	-15.8	22.2%	2.5
COc1ccc(-n2nnnc2-c2cn(C)nc2C(F)(F)F)cc1	1.8	-31.8	4.0	-1.5%	1.2
Cc1noc(C)c1CSCC(=O)Nc1ccc(Br)cc1Cl	-3.4	/	/	/	1.1
COc1cccc(N2C(=O)C3CCCN3C2c2ccc(Cl)cc2)c1 (configuration not stated)	1.6	-1.8	4.0	-2.6%	0.3	Arbovirus inh repeat=1.0
CCn1c(C)nnc1SCC(=O)Nc1ccccc1OC	1.1	/	/	/	-4.9
COc1cccc(C(=O)Nc2nnc(-c3ccc(F)cc3)o2)c1	93.7	/	-8.3	?	0.5
CCN1CCN(c2cc(C)c3cc(NC(=O)c4ccc(C)c(C)c4)ccc3n2)CC1	46.2	/	/	/	-0.4
CCOc1ccc(NC(=S)NN2CCN(C)CC2)cc1	-1.2	-16.1	15.9	-1.4%	1.0
O=C(COc1ccc(Cl)cc1)OCC(=O)N1CCCC1	48.8	1.8	4.9	0.6%	-0.1	Arbovirus inh repeat=5.3
CN1CCN(S(=O)(=O)c2ccc(N3CCN(C(=O)c4ccccc4)CC3)nc2)CC1	-5.1	/	17.4	5.8%	-1.2
CCCN1CCN(CCCNC(=O)c2cc3c(=O)oc4ccc(C)cc4c3s2)CC1	-3.7	/	/	/	-3.5
O=C(NNS(=O)(=O)c1ccc(Br)cc1)c1csnn1	/	/	-5.5	1.1%	/
CCCn1nc(Oc2nc(NCC)nc(NC(C)C)n2)ccc1=O	-1.8	-2.8	-16.6	-7.8%	-0.7
Cc1cc2nnc(SCC(=O)N3C(C)CCCC3C)n2c(N)n1 (configuration not stated)	-4.9	-38.7	5.6	-2.6%	-0.3
O=C(NCCc1ccccc1)C(=O)NCC1OCCN1S(=O)(=O)c1ccccc1 (configuration not stated)	0.5	/	/	-4.3%	4.9
CN(C)S(=O)(=O)c1ccc(C(=O)N(c2ccccn2)c2ccccn2)cc1	-4.2	-2.4	-5.0	0.3%	-2.1
Cc1ccc(C2=NC3(CCCC3)N=C2SCC(=O)Nc2ccc3c(c2)OCCO3)cc1	20.4	-23.5	1.7	/	11.5
Fc1cccc(NC(=S)NCc2ccc(Cl)cc2)c1	9.5	-17.7	-6.3	10.9%	3.2
CCOc1ccc(=O)n(-c2ccccc2)n1	-6.5	-17.7	-2.0	-1.9%	0.0
CC(C)(C)c1ccc(C(=O)N2CCN(c3nc4ccccc4o3)CC2)cc1	-0.5	-41.5	5.2	8.6%	-1.5
O=C(CCSCc1ccccc1Cl)NCc1cccs1	-21.5	/	2.3	-1.9%	0.1
COc1ccccc1N1CCN(S(=O)(=O)c2ccc3c(c2)NC(=O)C(C)C(=O)N3)CC1 (configuration not stated)	-5.6	/	/	/	1.4
C=CCn1c(=O)c2ccccc2n2c(SCC(=O)Nc3sc(C(=O)N(CC)CC)c(C)c3C(=O)OCC)nnc12	-3.4	-24.8	-13.1	5.1%	4.0
COc1ccc(NC(=O)Cn2c(=O)n(Cc3ccco3)c(=O)c3ccccc32)cc1	-5.9	-10.2	-8.6	1.3%	/
COc1cc(NC(=O)Cn2nc(C(F)(F)F)c3c2CCCC3)cc(OC)c1OC	-1.0	-1.6	-11.2	-2.4%	-1.9
SMILES	Mtb betalactam	YopH PTP inh	Arbovirus inh	Mtb H37Rv	RecA splice inh	others
O=C(NNC(=O)c1cccnc1SCc1cccc([N+](=O)[O-])c1)c1ccc(F)cc1	-6.8	-26.6	-8.0	1.2%	0.2
C#CCOCCOCCOCCNc1nc(N2CCN(C(=O)[C@H]([C@@H](C)CC)n3cc([C@@H](N)CC(C)C)nn3)CC2)nc(N2CCN(C(=O)[C@H](CCCCN)n3cc([C@@H](N)CO)nn3)CC2)n1	-14.4	/	1.8	/	2.5
CCOc1c(Cl)cc(CNC(C)C(O)c2ccccc2)cc1OC (configuration not stated)	-11.9	/	7.0	-1.2%	-1.9
Cc1cnc(-c2nnc(N(C)C(=O)c3cccnc3)s2)cn1	-7.0	-62.9	-5.4	2.1%	2.1
Cc1cc(/C=N/NC(=O)C(=O)NCc2ccccn2)c(C)n1-c1cccc(Br)c1	1.7	/	4.9	11.4%	0.4
Cc1ccccc1N=Cc1cc2c(cc1[N+](=O)[O-])OCO2	-2.9	-3.6	-4.8	1.7%	-3.8
COc1ccc(NC(=O)CSc2nc3c(c(=O)n2-c2ccc(F)cc2)SCC3)cc1	-4.0	-9.0	9.9	-1.8%	3.4	Arbovirus inh repeat=-1.2
Cc1c(Cl)c([N+](=O)[O-])nn1CCCC(=O)Nc1cccc(Cl)c1	-4.7	-26.8	-2.3	-0.7%	-0.3
O=C(NC1CCCC1)C1CCC(=O)N1CCc1ccccc1 (configuration not stated)	-3.4	-12.7	3.0	-7.1%	1.2
Cn1cc([N+](=O)[O-])c(C(=O)Nc2ccc(C3CCCCC3)cc2)n1	3.5	/	-37.5	0.2%	-1.0
COC(=O)c1ccc(COc2ccc(C(=O)c3ccccc3)cc2)o1	5.7	/	/	/	1.6
N#C/C(=C(/O)COC(=O)COc1cccc(Br)c1)c1nc2ccccc2[nH]1	72.5	/	/	19.7%	-2.2
CCCN1C2CCCC1CC(NC(=S)Nc1cccc(C)c1C)C2 (configuration not stated)	-12.2	/	/	/	-0.8
CNC(=O)c1ccc(NC(=O)Cc2ccc(S(=O)(=O)N3CCOCC3)s2)cc1	-13.8	/	/	/	-1.6
CCOc1ccccc1NC(=O)CC1Nc2ccccc2NC1=O (configuration not stated)	-1.0	-19.2	3.0	6.6%	4.5
COc1ccc(/C=C/c2nnc(NC(=O)CSc3ccc(Cl)cc3)s2)cc1	-4.2	-17.7	-5.1	4.7%	-4.6
Cc1cc(CNC(=O)C(C)Cc2ccccc2)nn1C (configuration not stated)	-6.9	-6.3	-0.2	-13.5%	0.5
Cc1[nH]c(=O)[nH]c(=O)c1/C=N/NC(=O)CCCCCNC(=O)OC(C)(C)C	0.0	/	/	10.1%	0.2
CSCC[C@H](NC(=O)[C@H](Cc1ccccc1)n1c(=O)[nH]c2ccccc2c1=O)C(=O)N[C@@H](Cc1ccccc1)C(=O)O	-5.7	/	/	/	1.9
O=C(COC(=O)c1cc(=O)[nH]c2ccccc12)c1ccc(Br)cc1	-7.7	/	/	0.3%	-2.2
O=[N+]([O-])c1ncccc1OCc1ccccc1Br	-3.4	/	/	/	4.6
O=c1c2ccccc2nc(Cc2ccccc2)n1-c1ccc(O)cc1	-3.6	/	-12.3	2.4%	0.2
Cc1ccc(C)c(C(=O)N(Cc2nc(-c3ccc(Cl)cc3)no2)C(C)C)c1	-0.1	-48.7	1.7	4.8%	7.5	Arbovirus inh repeat=-22.9
COc1ccc(OC)c(S(=O)(=O)Nc2cccc(O)c2)c1	0.8	/	/	/	-1.6
CCOC(=O)CCc1c(C)c2ccc(OCC(=O)N(CC)CC)c(C)c2oc1=O	9.9	-17.9	-2.8	2.1%	0.0
SMILES	Mtb betalactam	YopH PTP inh	Arbovirus inh	Mtb H37Rv	RecA splice inh	others
COC(C(=O)Nc1cc([N+](=O)[O-])ccc1C)c1ccccc1 (configuration not stated)	-2.2	/	-2.4	-0.8%	-0.5
O=c1oc2ccc([N+](=O)[O-])cc2c(N2CCOCC2)c1[N+](=O)[O-]	-7.1	/	5.9	-0.3%	-0.9
O=C1OC(Cc2ccncc2)C(O)=C1C1=NCCCN1 (configuration not stated)	-1.2	-22.2	5.3	-4.8%	3.1
O=C(C[n+]1ccccc1)N/N=C/c1ccccc1F	-1.7	/	12.7	-3.6%	1.4
Cc1ccc(CC2CC(=O)N(Cc3ccco3)C2=O)cc1 (configuration not stated)	-13.5	-28.7	5.5	6.3%	1.7
CN1CCC(=O)N([C@H](CN=[N+]=[N-])c2ccccc2)CC1	-9.5	/	/	/	-3.4
Cc1nnc(NC(=O)CSc2ncnc3c2cnn3-c2ccccc2C)s1	-3.6	-41.9	-1.3	0.8%	-1.3
Cc1cc(=O)oc2cc(OCC(=O)NC3CCN(Cc4ccccc4)CC3)c(Cl)cc12	-0.5	/	/	/	0.2
Cc1onc(-c2c(F)cccc2Cl)c1C(=O)NC(=S)Nc1c(C)n(C)n(-c2ccccc2)c1=O	-6.3	/	2.5	5.4%	0.1
COC(=O)c1cnc(SCC(=O)c2ccccc2)n1C	2.6	/	/	/	-2.9
O=C(CN1C(=O)C2C3C=CC(C3)C2C1=O)Nc1ccc(C(=O)O)cc1 (configuration not stated)	-4.4	-21.8	-0.9	-5.4%	1.4

Sorted by SMILES length (rising): four of the compounds above
SMILES	Mtb betalactam	YopH PTP inh	Arbovirus inh	Mtb H37Rv	RecA splice inh	others
COC(=O)c1cnc(SCC(=O)c2ccccc2)n1C	2.6	/	/	/	-2.9
O=C1OC(Cc2ccncc2)C(O)=C1C1=NCCCN1 (configuration not stated)	-1.2	-22.2	5.3	-4.8%	3.1
O=C(CN1C(=O)C2C3C=CC(C3)C2C1=O)Nc1ccc(C(=O)O)cc1 (configuration not stated)	-4.4	-21.8	-0.9	-5.4%	1.4
Cc1cc(=O)oc2cc(OCC(=O)NC3CCN(Cc4ccccc4)CC3)c(Cl)cc12	-0.5	/	/	/	0.2

2 compounds picked at random from those above, as already listed:
SMILES	Mtb betalactam	YopH PTP inh	Arbovirus inh	Mtb H37Rv	RecA splice inh	others
Cc1ccc(CC2CC(=O)N(Cc3ccco3)C2=O)cc1 (configuration not stated)	-13.5	-28.7	5.5	6.3%	1.7
Cc1cc(=O)oc2cc(OCC(=O)NC3CCN(Cc4ccccc4)CC3)c(Cl)cc12	-0.5	/	/	/	0.2

Bioassay records (PubChem)
